INS promoter inh: TRM-6 insulin promoter activity inhibition | hit rate 0.9% among 130,000 | TRM-6 cells (human fetal islet line), insulin promoter-eGFP reporter, imaging; reporter expression induced with tamoxifen | AID 1273 | inhibition, % at 2 µM;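 active = inhibition above the mean plus 3 SD, with well images judged a real hit on visual review, cut at about 60% in these data, passing the limit was not always enough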
GALR2 agonist: agonists of human galanin receptor 2 (GALR2); O43603; GALR2-expressing cells, agonist activation read-out; activation, %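 (tested at 5 µM)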; hit rate 0.48% among 140,000; AID 803;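 active = above mean plus 3 SD of all compounds, about 5% in these data, not always enough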;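 note: 0% = vehicle buffer wells and 100% = reference agonist at full effect; tested in CHO reporter cells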
Target sequence (O43603 whole entry, looked up): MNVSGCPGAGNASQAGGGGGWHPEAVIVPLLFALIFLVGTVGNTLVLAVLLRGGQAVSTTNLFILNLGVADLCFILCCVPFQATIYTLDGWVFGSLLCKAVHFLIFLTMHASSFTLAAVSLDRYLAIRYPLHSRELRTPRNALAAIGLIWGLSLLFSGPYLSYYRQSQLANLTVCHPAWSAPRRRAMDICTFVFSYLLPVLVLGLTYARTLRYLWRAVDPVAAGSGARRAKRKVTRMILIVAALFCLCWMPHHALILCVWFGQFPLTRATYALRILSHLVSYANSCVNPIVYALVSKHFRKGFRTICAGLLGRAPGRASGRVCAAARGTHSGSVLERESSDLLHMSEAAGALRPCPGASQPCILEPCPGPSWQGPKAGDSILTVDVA
HSV replic up: HSV replication enhancement; HSV replication augmentation in cells, fold increase; maximum fold increase; hit rate 0.005% among 220,000; AID 1956;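 active = peak rise of 1.5-fold or more in the series; tested in PC3 cells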;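 note: first round at 10 µM; read as green reporter fluorescence; hits show the peak of a series up to 25 µM; 1 = signal of infected wells without compound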
RGS16-Gao: modulates binding between human RGS16 and Galphao | bead-based flow cytometry RGS16-Galphao binding, fluorescence; actives lie on both sides | binding response (% of control), % at 10 µM | hit rate 0.38% among 220,000 | AID 1441;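 active = below 25% or above 175%, edge rows of some plates excepted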;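 note: Galphao activated by GDP with aluminum fluoride before binding; 100% = wells without compound and 0% = beads without RGS; some results beyond the cut were filed as inactive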
Target sequence (O15492 whole entry, looked up): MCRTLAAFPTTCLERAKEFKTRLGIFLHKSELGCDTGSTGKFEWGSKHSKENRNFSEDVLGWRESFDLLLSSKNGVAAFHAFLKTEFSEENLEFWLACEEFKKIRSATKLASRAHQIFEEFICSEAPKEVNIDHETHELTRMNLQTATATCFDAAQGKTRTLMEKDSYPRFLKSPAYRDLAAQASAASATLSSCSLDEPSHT
Target sequence (P09471 whole entry, looked up): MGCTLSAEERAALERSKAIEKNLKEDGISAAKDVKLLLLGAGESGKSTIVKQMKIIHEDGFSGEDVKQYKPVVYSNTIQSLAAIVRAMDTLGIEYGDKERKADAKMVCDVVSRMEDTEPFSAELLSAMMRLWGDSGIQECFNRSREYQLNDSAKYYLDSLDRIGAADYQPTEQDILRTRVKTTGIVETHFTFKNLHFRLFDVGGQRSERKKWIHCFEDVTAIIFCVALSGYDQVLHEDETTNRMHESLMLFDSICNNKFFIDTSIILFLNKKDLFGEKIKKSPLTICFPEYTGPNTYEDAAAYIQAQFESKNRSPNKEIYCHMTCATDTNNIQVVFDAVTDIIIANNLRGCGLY
PKD1 kinase inh: inhibitors of human PKD1 kinase | hit rate 0.056% among 200,000 | PKD1 kinase fluorescence polarization assay | inhibition, %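 (about 10 µM by stock and volumes)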;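 active = inhibition of 50% or more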;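 note: controls were vehicle for no effect and a reference inhibitor for full effect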
INS promoter inh cell count: recorded beside INS promoter inh, whose call it bears; normalized cell count, %; measured here: cell count, toxicity; reference of the scale not given here;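 cells exposed to compound for 48 h; stained nuclei by imaging scaled within each plate; lower means fewer cells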
HSV replic up primary fold: second read-out of HSV replic up, no call of its own (marks repeat the call); fold increase; compound at 10 µM; measured here: primary screen fold increase 10 uM; tested in PC3 cells;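 GFP signal in the first replicate; 1 = infected wells without compound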
Numbers without * were called inactive; i = inactive; . = not tested or not shown; & = joins results of further samples.

Every second line gives: INS promoter inh	INS promoter inh cell count	GALR2 agonist	HSV replic up	HSV replic up primary fold	RGS16-Gao	PKD1 kinase inh
CC(C)CNC(=O)c1cc([N+](=O)[O-])ccc1N1CCOCC1
→ -31	113	-0.5	.	.	102	-6
CCc1ccc(-n2c(SCc3cc(=O)n4cc(Br)ccc4n3)nc3[nH]ncc3c2=O)cc1
→ .	.	.	i	0.95	102	3
CC(C)(C)c1nc[nH]c(=O)c1Br
→ 21	117	0.9	i	0.93	102	-2
CCCn1c(=O)c2c(C(F)(F)F)cc(-c3cccs3)nc2n(CCC)c1=O
→ .	.	6.9*	i	0.97	103	-9
CCCC1=NN(c2ccc([N+](=O)[O-])cc2)C(=O)/C1=C\N(C)C
→ 25	82	-0.5	i	0.97	108	-7
CC(C)(C)NC(=O)C(=O)NNC(=O)c1ccc(C(C)(C)C)cc1
→ -43	109	-0.6	i	0.88	97	-8
Cc1ccc(OCCn2cc(Br)c(=O)[nH]c2=O)cc1
→ 27	70	-0.1	i	1.1	102	-7
CCc1ccc(N2C(=O)CC(Cn3nc(C)cc3C)C2=O)cc1 (configuration not stated)
→ .	.	.	i	1.2	110	.
Cc1cccc(NC(=O)Cc2ccc(F)cc2)c1
→ 28	105	-1.3	i	1.1	97	2
Cc1ccc(-c2nnnn2CS(=O)(=O)c2ccccc2)cc1
→ 5	197	0.1	i	0.93	95	-4
O=C(Nc1ccc(Cl)cn1)c1cccc(F)c1
→ -48	66	-1.7	i	0.89	135	-14
CCc1nnc(NC(=O)Cn2c(=O)oc3ccccc32)s1
→ -4	29	-2.3	i	1	88	1
O=C(NCn1cnccc1=O)c1ccccc1
→ -5	83	-1.6	i	1.1	99	-3
Cc1ccc(C)c(NC(=O)COC(=O)CC2c3ccccc3CCN2S(=O)(=O)c2ccc(F)cc2)c1 (configuration not stated)
→ -38	101	-1.6	.	.	107	1
S=C(NCc1ccc(Cl)cc1)NC12CC3CC(CC(C3)C1)C2
→ .	.	-1.8	i	0.96	94	6

Pulled one by one from above (three):
Every second line gives: INS promoter inh	INS promoter inh cell count	GALR2 agonist	HSV replic up	HSV replic up primary fold	RGS16-Gao	PKD1 kinase inh
O=C(Nc1ccc(Cl)cn1)c1cccc(F)c1
→ -48	66	-1.7	i	0.89	135	-14
CC(C)(C)c1nc[nH]c(=O)c1Br
→ 21	117	0.9	i	0.93	102	-2
O=C(NCn1cnccc1=O)c1ccccc1
→ -5	83	-1.6	i	1.1	99	-3

Other entries:
Every second line gives: INS promoter inh	INS promoter inh cell count	GALR2 agonist	HSV replic up	HSV replic up primary fold	RGS16-Gao	PKD1 kinase inh
Nc1ccc(-n2nnnc2CN2CCOCC2)cc1
→ 38	130	0.0	i	0.94	108	2
Cn1c(=O)c(=O)n(C)c2cc(S(=O)(=O)N3CCN(C4CCCCC4)CC3)ccc21
→ .	.	-3.0	i	1.1	102	10
CC(C)(C)NC(=O)CSc1nnc(-c2ccncc2)n1Cc1ccccc1
→ 7	148	-0.1	i	0.82	114	1
N#C/C(=C\c1ccc[nH]1)C(=O)NCC1CCCO1 (configuration not stated)
→ .	.	.	i	1.1	102	.
CCCCn1c(N)c(S(=O)(=O)c2ccc(C)cc2)c2nc3ccccc3nc21
→ -7	72	0.5	i	0.86	82	1
CCOC(=O)c1ccc(NC(=O)NC2CC3CCC(C2)N3Cc2nnnn2Cc2ccco2)cc1 (configuration not stated)
→ 20	152	-0.2	i	1	98	-5
CCOC(=O)C1CCN(C(=O)c2cc3ccccc3oc2=O)CC1
→ 12	120	.	i	0.89	97	9
O=C(COC(=O)C1CC2C=CC1C2)Nc1ccc2c(c1)OC(F)(F)O2 (configuration not stated)
→ 28	150	0.8	i	1.1	72	-4
CC1(C)Cc2c(sc(NC(=O)/C=C/C(=O)O)c2C#N)CO1
→ .	.	.	i	1	103	.
O=C(COC(=O)c1cccc([N+](=O)[O-])c1)NCC1CCCO1 (configuration not stated)
→ 24	71	.	i	0.99	141	-3
CCN(CC)C(=O)Cn1cc(SCC(=O)NC)c2ccccc21
→ -67	77	.	i	1.1	134	1
CCCOc1ccccc1Nc1nnc(C)c(=O)[nH]1
→ 13	124	-3.3	i	0.94	122	-3
Cc1c(C(=O)N2CCOCC2)[nH]c2ccc(OCc3ccccc3)cc12
→ -104	126	-1.0	i	0.96	100	-4
CCCCCNC(=O)CN(c1ccc2c(c1)OCO2)S(C)(=O)=O
→ 8	141	-2.0	i	1.2	102	-2
Cc1ccc(O)c(-c2cc(C(F)(F)C(F)F)nc(-c3ccccc3)n2)c1
→ 16	117	-1.5	i	0.79	103	-6
COc1ccc(CCNc2oc(Cc3cccc4ccccc34)nc2C#N)cc1OC
→ .	.	-0.6	i	0.92	95	-1
COc1ccccc1-c1nnc(NC(=O)c2ccc(S(=O)(=O)N(C)Cc3ccccc3)cc2)o1
→ 17	50	-1.6	i	0.89	99	0
C=CCC1(CC=C)CCCN1C(=O)CC1C(=O)NCCN1Cc1cc(OC)cc(OC)c1 (configuration not stated)
→ .	.	.	i	0.95	108	-6
Cc1nc2ccc(C(=O)N3c4ccccc4CC3C)cc2s1 (configuration not stated)
→ .	.	.	i	0.7	100	2
CC(=O)c1c(C)[nH]c(C(=O)Nc2cccc(S(=O)(=O)N(C)c3ccccc3)c2)c1C
→ -20	194	.	i	0.88	104	2
CC(C)C(=O)NC(Nc1ccc(S(N)(=O)=O)cc1)C(Cl)(Cl)Cl (configuration not stated)
→ 12	56	-1.4	i	1	102	-5
COc1cccc(-n2nnc(S(=O)(=O)c3ccc(C)cc3)c2N)c1
→ .	.	.	i	0.91	100	3
C=C(C)C1CC=C(C)/C(=N/NC(=O)c2ccc(NC(=O)c3cccc(C)c3)cc2)C1 (configuration not stated)
→ 56	120	-1.6	.	.	97	-11
Cc1ccccc1N=C1SCC(=O)N1Cc1ccccc1
→ 21	110	0.1	i	1.1	103	7
CC(/C=C1\SC(=S)N(NC(=O)c2cccc(O)c2)C1=O)=C\c1ccccc1
→ 31	128	-2.0	i	1.1	107	-8
O=C(/C=C/c1cn(CC(O)CN2CCCCC2)c2ccccc12)c1cccs1 (configuration not stated)
→ .	.	0.1	.	.	83	3
CCOC(=O)N1CCN(C(=O)c2ccc(CS(=O)(=O)c3c(Cl)cccc3Cl)o2)CC1
→ .	.	-1.2	i	0.92	101	-6
COCC(=O)N(Cc1cc2ccc(C)cc2[nH]c1=O)c1ccc(OC)cc1
→ .	.	-1.0	i	0.99	-28*	-11
CCCc1cc(=O)[nH]c(SCC(=O)N(C)C2CCS(=O)(=O)C2)n1 (configuration not stated)
→ .	.	-3.6	i	0.96	103	2
COc1cc2c(cc1NC(=S)NC(=O)/C=C/c1ccc(OC)c(OC)c1)oc1ccccc12
→ 24	71	-0.6	i	1	101	-6
CNc1nnc(-c2ccncc2)s1
→ 7	164	-2.2	i	0.84	111	0
CCCNC(=O)c1c(N)n(-c2cc(OC)cc(OC)c2)c2nc3ccccc3nc12
→ 0	139	14*	i	0.87	111	8
Cc1ccc(C)c(NCCC#N)c1
→ 28	78	-0.2	i	0.98	93	-15
OC1CCN(c2cc(-c3ccccc3)nc3cc(-c4ccc(F)cc4)nn23)CC1
→ .	.	.	i	0.74	99	-4
CCN(c1ccccc1)S(=O)(=O)c1ccc(Cl)c(C(=O)NCC2CCCO2)c1 (configuration not stated)
→ .	.	.	i	1	105	1
COc1cccc(OCC(Cn2c(C)nc3ccccc32)OC(C)=O)c1 (configuration not stated)
→ .	.	.	i	0.95	95	4
FC(F)(F)c1cnc2c(-c3ccccc3)n[nH]c2c1
→ 54	115	.	i	0.95	104	4
O=C1c2cccc(O)c2C(=O)c2c(O)cccc21
→ 29	140	2.3	i	0.79	99	1
CCOCN(C(=O)Cn1cnc2ccccc21)c1c(C)cccc1CC
→ .	.	.	i	0.98	100	-7
COC(=O)c1cnn2c3c(c(C)nc12)CCCC3
→ .	.	-1.2	i	0.95	96	-5
O=C(CSc1nnc(Cc2ccccc2)o1)NC1CCCCC1
→ -76	76	-1.4	i	0.87	104	-14
Cc1ccc(OCC(=O)NC(=S)Nc2ccc(Br)cn2)cc1C
→ .	.	.	i	1.1	101	4
CCN(Cc1ccccc1)S(=O)(=O)c1cc(C(=O)NC(C)C2CC3CCC2C3)ccc1OC (configuration not stated)
→ -69	101	-0.5	.	.	38	10
COc1ccc(CNc2nc3ccccc3n2C)c(O)c1
→ .	.	.	i	0.91	102	.
Cc1cc(F)ccc1N1CCC(N2CCN(CCC(C)C)C(CCO)C2)CC1 (configuration not stated)
→ .	.	.	i	0.89	115	-6
Cc1c(O)nc(SCC(=O)Nc2ccc3c4c(cccc24)CC3)n(-c2ccccc2)c1=O
→ -14	118	-0.9	i	1.1	111	-3
CCN(CC)S(=O)(=O)c1ccc(/C=C/C(=O)Nc2cccc(F)c2)cc1
→ .	.	-1.1	i	0.84	130	1
CCC(C)(C)NC(=O)Cc1ccccc1OC
→ -392	104	-2.3	i	0.93	105	-14
COc1ccc(OC)c2[nH]c(=O)c(CCNS(=O)(=O)c3ccc(Cl)cc3)cc12
→ -9	83	1.5	.	.	105	-4
Clc1ccc2c(c1)C1=C(C(c3ccncc3)O2)C(c2ccc(Br)cc2)n2ncnc2N1 (configuration not stated)
→ 0	190	-3.4	i	0.59	99	-9
COC(=O)N/N=C(\C)c1ccccc1OC(F)F
→ 21	67	-3.5	i	0.87	110	-8
Cc1cc2ncn(/N=C/c3ccc([N+](=O)[O-])s3)c2cc1C
→ .	.	-0.6	i	0.81	103	-1
Cc1ccc(Nc2nc(N)c([N+](=O)[O-])c(N3CCC(C)CC3)n2)cc1C
→ i	52	-0.1	i	0.88	95	7
CC1=CC(C)C(C[N+]2(C)CCCCC2)C(C)C1 (configuration not stated)
→ -13	105	.	i	1.1	105	-3
COC(=O)Cc1c(C)nc2nc(NCc3cccc([N+](=O)[O-])c3)[nH]n2c1=O
→ 32	121	-2.4	i	0.71	108	-9
CNC(=O)C(NC(=O)CNC(=O)c1ccc(Cl)cc1)C(C)(C)C (configuration not stated)
→ .	.	.	i	0.98	98	-7
CCCCN(CCCC)CCNC(=O)CSCc1ccc(C)cc1
→ .	.	.	i	1	97	-2
O=C(N/N=C1\CCCc2c1[nH]c1ccc([N+](=O)[O-])cc21)c1ccncc1
→ .	.	0.4	i	1	137	-4
Cc1ccc2nc(-c3ccc(NC(=O)COC(=O)c4ccc([N+](=O)[O-])o4)cc3)sc2c1
→ -20	121	-0.6	i	0.78	103	-8
CC(C)N(C(=O)COC(=O)c1ccc(Cl)c(S(N)(=O)=O)c1)C(C)C
→ -15	157	.	i	0.95	106	-4

More compounds follow.
Every second line gives: INS promoter inh	INS promoter inh cell count	GALR2 agonist	HSV replic up	HSV replic up primary fold	RGS16-Gao	PKD1 kinase inh
O=S(=O)(c1ccc(Cl)c(Cl)c1)c1snnc1-c1ccccc1
→ -72	7	-2.8	i	0.73	99	4
CC(NC(=O)c1cccc(F)c1)C(c1cccs1)N1CCN(C)CC1 (configuration not stated)
→ .	.	-1.1	i	1.1	104	-5
CCOC(=O)c1c(NC(=O)C(=O)N/N=C(\C)c2ccc(OC)cc2)sc2c1CCCCC2
→ 25	69	-1.5	i	0.97	104	1
Cn1c(SCC(=O)NNC(=O)Cc2ccccc2)nc2ccccc2c1=O
→ 25	146	.	i	0.97	100	-2
CC1CC(C)(C)CC2(C1)NC(=O)N(CC(=O)NCCc1ccc3c(c1)OCCO3)C2=O (configuration not stated)
→ .	.	.	i	1.1	99	-4
COc1ccc(NC(=S)N(CCCN2CCCC(C)C2)Cc2cccs2)cc1 (configuration not stated)
→ 0	97	.	i	0.88	104	0
CC(C)CC(CC(C)C)=NNC(=O)c1ccc2c(c1)OCO2
→ 67	99	.	i	0.97	99	1
CCS(=O)(=O)NCC(c1ccco1)N1CCN(c2ccccc2)CC1 (configuration not stated)
→ .	.	-0.5	i	1	100	-1
Cc1nc2c(o1)CCc1ccccc1C2N1CCN(C)CC1 (configuration not stated)
→ -22	89	-0.3	i	0.89&1	106&111	-11&-2

For convenience, some entries already given:
Every second line gives: INS promoter inh	INS promoter inh cell count	GALR2 agonist	HSV replic up	HSV replic up primary fold	RGS16-Gao	PKD1 kinase inh
CC(C)CC(CC(C)C)=NNC(=O)c1ccc2c(c1)OCO2
→ 67	99	.	i	0.97	99	1
CCS(=O)(=O)NCC(c1ccco1)N1CCN(c2ccccc2)CC1 (configuration not stated)
→ .	.	-0.5	i	1	100	-1
Cc1nc2c(o1)CCc1ccccc1C2N1CCN(C)CC1 (configuration not stated)
→ -22	89	-0.3	i	0.89&1	106&111	-11&-2

Outcome played no part in choosing rows. About 1.3% of those tested had a hit in this group.
